# TRPV1 potentiator: enhances activation of the human vanilloid receptor TRPV1 | TRPV1-expressing cells, Fluo-8 calcium influx, capsaicin EC20 potentiation; host cell line not named in the record; control for the full effect not named in the record | AID 540277 | Q8NER1 | potentiation, % at 8.33 µM | 320,000 tested, 0.02% active; active means potentiation above 80%; inconclusive means 30% to 80%; inactive means below 30%; also: 0% is about no effect
#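 Fluo-8 calcium influx in TRPV1-expressing cells, kinetic read (ex 480/em 520 nm). Compound added and read 3 min for agonist activity, followed by capsaicin at EC20 final and 2 min further read for enhancement.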
# ClpP mod: qHTS Assay for Activators of ClpP; purified B. subtilis ClpP, FRET peptide cleavage, 20 min; Potency, µM (titrated, usually from 57.5 µM), for inactives: top-dose activity change, negative = active; 340,000 tested, 1.9% active; active = well fitted falling curve with a large enough effect; inconclusive = small, poorly fitted or top-dose-only effect; inactive = no such curve, though single readings can be large or run the other way; also: potency is read from the fitted curve at half-maximal effect; the source files actives as falling curves though it sought activators and does not explain the sign; nearly all actives have a fitted effect of over 65% in size; many hits overshoot -100%
# Target sequence (P80244 whole entry, looked up): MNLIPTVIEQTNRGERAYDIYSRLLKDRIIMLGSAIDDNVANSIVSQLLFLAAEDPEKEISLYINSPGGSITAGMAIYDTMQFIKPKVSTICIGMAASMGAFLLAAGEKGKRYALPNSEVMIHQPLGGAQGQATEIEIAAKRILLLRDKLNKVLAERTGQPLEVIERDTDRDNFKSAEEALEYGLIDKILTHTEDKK
#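 FRET quenching reversal measured ClpP activation: 10 microg/mL B. subtilis ClpP at pH 8 with the FRET-FV decapeptide, read at 430 nm after 320 nm excitation. The 20-min minus 0-min signal was scaled between DMSO/no-enzyme wells and ADEP (5.8 microM final).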
# Menin MLL FP FL: menin-MLL binding inhibition, fluorescein peptide | Fluorescence polarization, fluorescein-MLL peptide displacement from menin | FP activity change, % at 61.4 µM | 290,000 tested, under 10 active | AID 1766; inconclusive = falling polarisation curve, or a change in total fluorescence; inactive = total fluorescence flat and polarisation flat or rising; no compound was filed as active; the % refers to the polarisation; negative = inhibition;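 also: % of control where 0% means no effect; inhibitors lower the polarisation; unlabelled MLL peptide was the positive control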
# TRPML1 blocker: blocks the human TRPML1 channel; Q9GZU1; TRPML1-inducible cells, Ca2+ dye fluorescence, FDSS; stronger effect = lower value; inhibition of EC80 agonist-evoked calcium signal; activity change, negative = inhibition, % (no concentration beside the values); 390,000 tested, 0.02% active; AID 624415; in the data active means activity change below about -50%; inconclusive means about -30% to -50%; inactive means above about -30%;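 also: stimulus is agonist 54-4 at its EC80 concentration; % is scaled to controls: 0 for no effect and ±100 for the full control effect; compound concentration not given in the record; the text of the record puts the active cut at -80%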
# Target sequence (Q9GZU1 whole entry, looked up): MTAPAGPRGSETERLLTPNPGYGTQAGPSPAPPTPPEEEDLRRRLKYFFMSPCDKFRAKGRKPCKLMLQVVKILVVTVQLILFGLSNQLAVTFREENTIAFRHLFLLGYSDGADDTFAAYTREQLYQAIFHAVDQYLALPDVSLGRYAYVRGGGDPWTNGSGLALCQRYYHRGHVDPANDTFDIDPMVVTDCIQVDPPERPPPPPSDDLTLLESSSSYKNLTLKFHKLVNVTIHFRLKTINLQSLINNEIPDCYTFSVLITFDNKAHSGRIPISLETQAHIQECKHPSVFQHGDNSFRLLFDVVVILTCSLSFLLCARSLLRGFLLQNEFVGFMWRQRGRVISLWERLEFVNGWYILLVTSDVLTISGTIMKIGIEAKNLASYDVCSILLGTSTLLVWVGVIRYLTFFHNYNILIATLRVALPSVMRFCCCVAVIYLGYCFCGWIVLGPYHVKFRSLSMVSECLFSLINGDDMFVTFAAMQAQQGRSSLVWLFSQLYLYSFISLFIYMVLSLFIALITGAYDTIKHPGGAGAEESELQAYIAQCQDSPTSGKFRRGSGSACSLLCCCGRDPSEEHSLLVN
#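 Calcium fluorescence in TRPML1-DL cells induced overnight with Tet: a 110 s read after compound pin addition, then a 110 s antagonist read after challenge with 54-4 at 4 uM final (EC80).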
# gsp agonist: agonists of gsp mutant (McCune-Albright syndrome). gsp mutant cells, cAMP HTRF, 30 min; control for the full effect not named in the record. Potency, µM (series often up to 76.9 µM), inactives show at the highest dose activation (cAMP increase), most hits filed as activators. 340,000 tested, 0.13% active. AID 624287; active = well fitted activation curve with a large enough effect; inconclusive = small, poorly fitted or top-dose-only effect, or another doubt; inactive = no such curve, though single readings can be large or run the other way; cell line not stated here;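 also: phosphodiesterase inhibitor Ro 20-1724 added with compounds to block cAMP breakdown; potency is read from the fitted curve at half-maximal effect; nearly all actives have a fitted effect of over 60% in size; about a fifth of the inactives were tested at one dose only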
#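 Cells stably selected in G418 were plated at 2000/well, grown 16-24 hr, then given compounds in DMSO with the PDE inhibitor […] (300 uM solution added) for 30 min at 37C; cAMP was read by HTRF.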
# gsp antagonist: antagonizes gsp, the McCune-Albright syndrome mutation; gsp-mutant cells, cAMP HTRF, 30 min; control for the full effect not named in the record; Potency, µM (doses to about 76.9 µM), inactives show at the highest dose activity change, negative = inhibition, actives largely listed as inhibitors; 340,000 tested, 0.4% active; AID 624288; active = falling curve of any shape with a large fitted effect; inconclusive = falling curve, mostly with a smaller effect; inactive = flat or rising curve; cell line not stated here;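 also: intracellular cAMP measured with PDE inhibitor Ro 20-1724 present during compound exposure; potency is read from the fitted curve at half-maximal effect; % is scaled to controls: 0 for no effect and ±100 for the full control effect; nearly all actives have a fitted effect of over 65% in size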
#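 Measurement of cellular cAMP by homogeneous time-resolved fluorescence following a 30 min compound exposure at 37C. The PDE inhibitor […] was present throughout; the assay buffer was DPBS with 0.05% BSA and 0.005% Tween 20.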
# Sfp PPTase inh: inhibitors of Bacillus subtilis Sfp phosphopantetheinyl transferase. Biochemical Sfp PPTase activity, qHTS. Potency, µM, without a hit: max response, negative = inhibition, most hits filed as inhibitors. 310,000 tested, 3.5% active; active = well fitted inhibition curve with a large enough effect; inconclusive = small, poorly fitted or top-dose-only effect, or another doubt; inactive = no such curve, though single readings can be large or run the other way;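 also: the enzyme is Sfp with the accession as filed and its product quenches rhodamine fluorescence; potency is read from the fitted curve at half-maximal effect; 0% = enzyme reaction without inhibitor and -100% = no enzyme wells; top concentration of the series not given in the record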
#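 After 15 min at room temperature with compound, 15 nM Sfp received 5 uM rhodamine-CoA plus 12.5 uM BHQ-2-ybbR (50 mM Hepes pH 7.6, 10 mM MgCl2). Rate came from the fluorescence difference over 30 min, ex 525/em 598 nm.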
# Numbers without * were called inactive; ? = inconclusive; . = not tested or not shown; [ ] = another dose, or the depositor's remark.
SMILES,TRPV1 potentiator,ClpP mod,Menin MLL FP FL,TRPML1 blocker,gsp agonist,gsp antagonist,Sfp PPTase inh
Cc1nc2ccccc2cc1C(=O)N/N=C/c1ccc([N+](=O)[O-])cc1,0,2.2%,-0.2,-3,22%,-10%,3%
Cn1c(=O)c2[nH]c(Cc3cccc(O)c3)nc2n(C)c1=O,.,.,.,-6,43%,24%,.
O=C(NCc1ccncc1)c1ccc(Oc2ccccc2)cc1,-21,.,0.6,5,-9%[15.4 µM],-10%,-6%
CCOC(=O)c1ccc(-n2nc(C)cc2C)cc1,.,-3.4%,-1.3,-3,27%,3%,16%
CCN(CC)S(=O)(=O)c1ccc(OC)c(NC(=O)CSCc2c(C)noc2C)c1,.,.,.,-15,18µM*,4%,.
CCn1c(Cc2cccs2)nnc1SCC(=O)NC(C)(C)C,2,2.8%,0.1,-13,-1%[15.4 µM],3%,8%
O=C(COC(=O)C1(c2ccccc2)CC1)N1CCN(c2ccc(F)cc2)CC1,-11,-1.0%,-5.0,11,3%,1%,10%
CCOC(=O)N1CCN(S(=O)(=O)c2ccc(C(=O)N(CCN(C)C)c3nc4c(C)cccc4s3)cc2)CC1,9,1.4%,.,-22,?,9%,-3%
COc1cc(/C=C(/C#N)C(=O)Nc2ccccc2)ccc1OCc1ccc(C(=O)O)cc1,-16,-1.1%,5.1,-15,0%,?,17%
O=C(CSc1nc2ccccc2c(=O)[nH]1)Nc1cccc([N+](=O)[O-])c1,1,-0.1%,-1.2,17,-4%,-8%,3%
O=C(O)CSCC(=O)N1N=C2/C(=C/c3ccccc3)CCCC2C1c1ccccc1 (centres undefined),7,.,0.3,3,15%[15.4 µM],.,0%
CC(CC(=O)c1ccccc1)=NCC(O)CN=C(C)CC(=O)c1ccccc1 (centres undefined),.,0.3%,.,-3,-98%[inhibitor],.,.
CN(C(=O)COC(=O)c1ccc(S(=O)(=O)N2CCOCC2)cc1)c1ccccc1,.,-2.5%,.,22,12%[15.4 µM],-3%,.
O=C(O)CC(NC(=O)Cc1ccccc1)c1ccccc1 (centres undefined),15,2.3%,4.0,.,-43%[inhibitor],4%,12%
CC(OC(=O)Cc1coc2ccc3ccccc3c12)C(=O)Nc1ncc(Cl)cc1Cl (centres undefined),-10,-14%,8.4,29,-6%,-6%,12%
O=C(OCC(=O)N1CCOCC1)c1ccccc1OCc1ccc(Cl)cc1,.,.,.,-9,0%,-5%,.
COC1CCN(C(=O)c2ccc3oc(Cc4ccc(Cl)cc4)nc3c2)CC1,1,-0.9%,3.4,26,-26%,4%,20%
CC(NC(=O)COc1ccc(S(=O)(=O)N2CCOCC2)cc1)c1ccccc1 (centres undefined),0,2.3%,.,30,3%,-2%,.
O=C(NCc1cccs1)C1CCN(c2nc3ccccc3o2)CC1,-10,2.7%,1.3,13,-43%,-6%,4%
COc1cccc(C(=O)NC(=S)Nc2ccc([N+](=O)[O-])cc2C)c1,-5,1.4%,1.5,0,-10%,5%,-4%
C#Cc1cccc(NC(=O)C2CCN(C(C)=O)CC2)c1,2,.,-1.5,-3,-1%,4%,7%
CC(C)c1nc2cc(C(=O)N3CCNC(=O)C3c3ccc(F)cc3)ccc2o1 (centres undefined),4,1.1%,.,-10,-42%[inhibitor],-4%,8%
CCOC(=O)C1=C(COC(=O)CCS(=O)(=O)c2ccc(C)cc2)NC(=O)NC1C (centres undefined),-15,-2.7%,.,23,4%,-1%,.
COc1ccc(C(C#N)=Cc2ccccc2OC)cc1,.,-12%,.,57,16%,.,.
O=C(Nc1cccc(S(=O)(=O)N2CCOCC2)c1)c1cnn2c(C(F)F)cc(-c3ccccc3)nc12,4,.,-0.4,-5,10%[15.4 µM],.,6%

# Continued.
SMILES,TRPV1 potentiator,ClpP mod,Menin MLL FP FL,TRPML1 blocker,gsp agonist,gsp antagonist,Sfp PPTase inh
CN(Cc1ccccc1)C(=O)COc1ccc(C(C)(C)C)cc1,-9,-3.1%,7.9,18,7%,4%,6%
CC(=O)N(CCS(=O)(=O)c1ccc(Cl)cc1)Cc1cccs1,-6,-0.9%,2.2,-14,2%,-1%,16%
CCOC(=O)N1CCN(c2c(NCCc3ccc(C)cc3)c(=O)c2=O)CC1,-4,-0.9%,-7.1,-12,25%,-3%,9%
CC(=O)c1cccc2c(O)c(C3=Nc4ccccc4C3=O)[nH]c12,-6,2.5%,-2.4,7,-31%[inhibitor],8%,40µM*
O=C(O)C1CCCCC1C(=O)Nc1cnn(Cc2ccccc2)c1 (centres undefined),.,0.8%,0.0,27,20%,-1%,8%
CCCN(CCC)c1c([N+](=O)[O-])c(=O)oc2ccccc12,-6,-1.2%,3.6,-1,-4%[15.4 µM],11%,10%
CN(Cc1nc(-c2cnccn2)no1)Cc1n[nH]c2c1CCCC2,-13,.,-2.5,-1,2%[15.4 µM],-1%,13%
Cc1cccc(OCCC(=O)Nc2ccc(C)c(S(=O)(=O)N3CCOCC3)c2)c1,.,-3.1%,.,30,16%,-24%,.
COc1ccc(C(NC(=O)c2cccc(F)c2)c2ccccc2)cc1 (centres undefined),-10,-2.2%,5.0,-13,0%,-10%,18%
CCOc1ccc(S(=O)(=O)NCC2CCCO2)c2ccccc12 (centres undefined),6,-2.6%,-3.4,5,8%[15.4 µM],-2%,15%
N#CC1=C(Nc2ccccc2)SC=C(c2ccc(F)cc2)N=C1N1CCOCC1,0,.,4.3,.,.,.,14%
CC(C)(Cl)C1Cc2cc3ccc(=O)oc3cc2O1 (centres undefined),11,-11%,1.1,34,-7%,5%,-8%
COc1ccccc1CC(=O)Nc1ccc(-c2noc(COc3cccc(C)c3C)n2)cc1,4,-5.0%,0.1,-9,-4%,-4%,28%
O=C(NCc1cn2ccsc2n1)Nc1cccc(Cl)c1,30,-2.1%,1.0,-6,31%,4%,1%
Cc1ccc(C(=O)NCc2ccc3c(c2)OCO3)o1,-2,.,-1.6,-10,-19%,6%,8%
Cc1oc2ccc(O)cc2c1C(=O)OC(C)C,-3,-1.8%,1.3,21,3%,3%,2%
COC(=O)c1sc(NC(=O)CSc2nnc(Cn3nnc4ccccc43)n2C)nc1C,16,2.5%,2.2,-5,-16%,10%,-12%
C=CCNC(=O)CC1C(=O)NCCN1Cc1ccc(-c2ccccc2)cc1 (centres undefined),2,-3.9%,-4.2,-3,0%,4%,7%
CCOC(=O)CC(NC(=O)C1c2ccccc2Oc2ccccc21)c1ccccc1Cl (centres undefined),-7,-10%,9.4,-1,15%[15.4 µM],?,9%
COc1ccc(C(=O)NCC(=O)OCC(=O)c2ccc(Cl)cc2)cc1OC,-4,.,-2.6,7,-2%,8%,7%
COc1ccccc1/C=C/C(=O)NCc1ccccn1,6,.,-4.3,-1,?,6%,3%
CCN(CC)CCCNC(=O)Cn1ncc2c(=O)oc3ccc(C)cc3c21,-1,-1.1%,5.2,-7,-39%[inhibitor],6%,9%
CCOC(=O)c1ccc(NC(=S)N2CCCC(C)C2)cc1 (centres undefined),-23,.,-13,-4,1%[15.4 µM],-5%,2%
COc1ccc(OCCn2c(C)nc3ccccc32)cc1,.,1.6%,.,-9,-9%,.,.
CCc1cccc2c(C(=O)C(F)(F)F)cn(CC(=O)N3CCOCC3)c12,6,0.1%,0.0,7,-8%,15%,19%

# Looked up one by one from the entries so far, 3 records:
SMILES,TRPV1 potentiator,ClpP mod,Menin MLL FP FL,TRPML1 blocker,gsp agonist,gsp antagonist,Sfp PPTase inh
CCOC(=O)N1CCN(c2c(NCCc3ccc(C)cc3)c(=O)c2=O)CC1,-4,-0.9%,-7.1,-12,25%,-3%,9%
COc1ccccc1/C=C/C(=O)NCc1ccccn1,6,.,-4.3,-1,?,6%,3%
Cc1cccc(OCCC(=O)Nc2ccc(C)c(S(=O)(=O)N3CCOCC3)c2)c1,.,-3.1%,.,30,16%,-24%,.

# Other results follow:
SMILES,TRPV1 potentiator,ClpP mod,Menin MLL FP FL,TRPML1 blocker,gsp agonist,gsp antagonist,Sfp PPTase inh
O=[N+]([O-])c1cccc(S(=O)(=O)N2CCc3ccccc3C2)c1,13,-2.3%,3.6,1,-2%,10%,17%
Nc1c(C(=O)CSc2nnnn2-c2ccccc2)c(=O)[nH]c(=O)n1C1CC1,.,.,.,18,-47%[inhibitor],14%,.
Cc1nc2ccccc2c(=O)n1/N=C/c1cn[nH]c1-c1ccccc1,11,.,7.4,6,3%,0%,-15%
CCCSc1cc(NCCOC(=O)CCC)c([N+](=O)[O-])c2nonc12,0,1.2%,3.8,6,28%,5%,-18%
COc1ccc(C(NC(=O)/C=C\c2ccco2)c2ccc(OC)c(OC)c2)cc1 (centres undefined),10,-1.2%,3.8,6,?,-6%,20µM*
CC12CC(NC(=O)N1c1cccc(C(=O)NCc3ccccn3)c1)c1ccccc1O2 (centres undefined),-4,-1.0%,.,-3,1%,3%,5%
CCOC(=O)Nc1ccc2c(CN(C)Cc3ccc(F)cc3)cc(=O)oc2c1,3,.,-0.4,2,-6%[15.4 µM],16%,19%
Cc1cccc(NC(=O)COC(=O)c2ccc3c(=O)n4c(nc3c2)CCC4)c1,8,-7.9%,9.5,-22,-20%,-5%,0%
CN(C(=O)c1cccc(NC(=O)Cc2ccc(NC(=O)C3CCCN(C(=O)C4CCC4)C3)cc2)c1)C1CCCCC1 (centres undefined),.,2.9%,.,21,.,-11%,.
CNC(=O)c1c(C)nn(-c2ccc(F)c(Cl)c2)c1-c1cc(C)on1,10,-0.4%,6.6,-7,-2%[15.4 µM],0%,10%
Cc1ccc(NC(=O)C(=O)NCc2ccc(/C=C(/C#N)C(=O)NCc3cccnc3)o2)cc1C,8,64%,8.7,18,6%,?,-16%
CCOC(=O)N1CCN(C(=O)c2ccc3c(c2)sc2nc(-c4ccccc4)cn23)CC1,-1,-10%,1.5,11,5%,2%,-16%
Cc1ccc(NC(=O)CN2CCc3ccccc3C2)cc1F,-13,.,-0.7,66,-9%[15.4 µM],4%,-20%
COc1cc(NC(=O)C[n+]2ccc(C(=O)c3ccccc3)cc2)cc(OC)c1,.,-0.9%,.,-3,-9%,16%,.
CC(C)CC(=O)Nc1cc([N+](=O)[O-])ccc1Cl,7,0.8%,?,7,?,5%,2%
